# Screening data deposited in PubChem by several laboratories.
# MT1-MMP act inh = blockers of MT1-MMP proenzyme processing, primary screen, HT1080 RFP-PRO-GFP cells, GFP/RFP fluorescence. GFP/RFP ratio change, % at 20 µM. Matrix metalloproteinase-14 (Homo sapiens), P50281. AID 651647, 2012. GFP/RFP ratio fluorescence, overnight; percent of plate control window, DMSO zero. hit rate 0.061% among 360,000;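 active means GFP/RFP ratio change of at least 30% with cell ATP level not reduced by more than half and red fluorescence within 50% of control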; further: strong numbers were not always called active
#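 Compound: 20 µM single dose, 1% DMSO / System: HT1080 RFP-PRO-GFP cells / Controls: DMSO and RFP-L50D-GFP cell wells / Read-out basis: GFP/RFP fluorescence ratio / Schedule: overnight compound exposure at 37 °C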
# eIF4H inh = human eIF4H binding inhibitors, primary screen, translation initiation inhibitor project, biochemical, uHTS, fluorescence polarization. Eukaryotic translation initiation factor 4H (Homo sapiens), Q15056. eIF4H fluorescence polarization binding assay. inhibition, % at 35 µM. hit rate 0.94% among 290,000;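 active means 50% or more with normal probe brightness, or confirmed in later tests; about a fifth of its hits are not listed in these tables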;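 further: calls also rest on retests at 20 µM and on dose response follow-up; 0% = protein and probe with vehicle and 100% = probe without protein; strong numbers were not always called active; many hits fall short of the cut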
# PABP FP inh = PABP poly(A) RNA binding inhibitors, primary screen, biochemical, fluorescence polarization, uHTS. inhibition, % at 35 µM. AID 2014, 2009. hit rate 1% among 290,000;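 active means 50% or more with normal probe brightness, or confirmed in later tests; about a fifth of its hits are not listed in these tables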;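 further: calls also rest on retests at 20 µM and on dose response follow-up; controls were probe without protein and protein plus probe with vehicle; some compounds called inactive have numbers as strong as hits; many hits fall short of the cut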
# UUG fidelity = modulators of yeast start codon fidelity, primary screen, whole organism, S. cerevisiae, single point, plate reader; S. cerevisiae UUG-firefly luciferase reporter, luminescence/redox ratio; activity score, % at 18.7 µM; hit rate 0.13% among 350,000;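 active means replicate mean at a twofold rise or more, about +100% in these data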;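 further: firefly luciferase made from a UUG start codon reports start codon fidelity; reporter light over untreated wells divided by growth signal over untreated wells; some hits fall short of that in this replicate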
# Env fusion inh = inhibitors of HIV-1 Env-driven cell-cell fusion, primary screen, HeLa-JRFL effector, CEM21 target cells, luciferase. inhibition, % at 12.3 µM. hit rate 1.1% among 360,000;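 active means mean replicate inhibition score of at least 50 and every replicate individually at or above 50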;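 further: 0% = plate neutral controls and 100% = maraviroc near 300 nM; one replicate is shown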
# CSC inhib = cancer stem cell viability inhibitors, primary screen, luminescence | inhibition, % at 7.5 µM | cancer stem cell-like cells viability | AID 2717, 2010 | hit rate 1.1% among 300,000;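 active means mean at 75% or more and at least half the replicates too; tested in HMLE shEcad cells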;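 further: 0% = median of negative and 100% = median of positive control wells; the first replicate is given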
# Rce1 inhib = yeast Rce1p protease inhibitors, primary screen, biochemical, fluorescence, cell-free homogeneous | CAAX prenyl protease 2 (Saccharomyces cerevisiae (strain ATCC 204508 / S288c)), Q03530 | yeast membranes, quenched prenylated peptide cleavage fluorescence | calls only | hit rate 0.27% among 290,000 | AID 2563, 2010;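 active means fall in fluorescence gain of 50% or more versus controls, with final raw signal at or below 3038400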;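 further: plate controls were neutral control wells for no effect and wells lacking membranes for full effect; tested at 10 µM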
# Target sequence (Q03530 whole entry, looked up): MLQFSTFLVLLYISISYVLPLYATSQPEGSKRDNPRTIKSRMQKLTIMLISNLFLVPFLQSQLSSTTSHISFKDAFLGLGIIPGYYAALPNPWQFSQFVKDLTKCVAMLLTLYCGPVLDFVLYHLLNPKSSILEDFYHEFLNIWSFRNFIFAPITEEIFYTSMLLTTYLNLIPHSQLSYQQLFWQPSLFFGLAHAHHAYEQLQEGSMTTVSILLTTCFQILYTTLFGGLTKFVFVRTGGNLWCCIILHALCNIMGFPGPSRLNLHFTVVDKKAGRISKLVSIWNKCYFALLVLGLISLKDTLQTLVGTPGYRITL
# eIF4H inh retest = recorded beside eIF4H inh, whose call it bears; inhibition, %; compound at 20 µM; confirmation average;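 mean of two retest wells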
# PABP FP inh retest = also measured in PABP FP inh; calls as there; inhibition, %; compound at 20 µM; confirmation repeats;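 mean of two retest wells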
# MT1-MMP act inh RFP = second read-out of MT1-MMP act inh, no call of its own (marks repeat the call); RFP signal change, %; measured here: RFP expression control read;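 0 = vehicle wells; hits needed this value within 50% of zero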
# * hit, by the source's call; i = inactive; · = no result given; & = joins results of further samples.
SMILES,MT1-MMP act inh,MT1-MMP act inh RFP,eIF4H inh,PABP FP inh,UUG fidelity,Env fusion inh,CSC inhib,Rce1 inhib,others
COC(=O)CNC(=O)Cn1nc(C)c([N+](=O)[O-])c1C,2.8,6.1,-1.4,10.2,·,11.8,-1.1,i,
O=C(c1ccccc1F)N(Cc1ccccc1)Cc1ccccc1,-7.7,-5.7,2.2,19.7,-6.0,-6.1,-12.6,i,
COc1cc(NC(=O)CCC(=O)c2cccs2)cc(OC)c1,-1.8,-0.9,21.6,-0.6,-12.6,-16.8,-6.6,i,
CC(=O)Nc1ccc(NC(=O)CN(c2cccc(C)c2)S(C)(=O)=O)cc1,15.7,7.0,-8.1,-0.5,3.1,-30.3,-8.1,i,
CCC(=O)N1CCN=C1SCc1ccc(F)cc1,-0.4,5.9,2.3,4.9,-9.3,0.5,9.0,·,
O=C(NCCc1ccc(Cl)cc1)C1CCN(S(=O)(=O)c2ccc(Br)s2)CC1,-7.0,-12.1,5.1,-8.0,·,18.4,-4.9,i,
CCOC(=O)N1CCN(S(=O)(=O)c2ccc(C(=O)Nc3nc4ccc(F)cc4s3)cc2)CC1,2.1,-5.5,-6.1,-0.8,·,·,34.3,i,
CN1CCN(C(=O)/C(=C/c2cn(S(=O)(=O)N(C)C)c3ccccc23)NC(=O)c2ccccc2Cl)CC1,-1.1,7.0,4.5,1.0,-5.0,23.4,-2.8,i,
CCN(CC)S(=O)(=O)c1ccc(Cl)c(C(=O)OC2CC(C)OC2=O)c1 (configuration not stated),13.6,-0.5,-1.8,3.9,-8.1,2.6,-8.1,i,
Nc1ccc(CSc2ccc(Cl)cc2)c(Cl)c1,4.2,-0.9,·,·,-17.2,-88.8,·,·,
CC(=O)N1CCOc2ccc(S(=O)(=O)N3CCC(C(=O)NCc4ccc(F)cc4)CC3)cc21,-1.6,1.4,-14.3,7.9,-20.0,-4.8,2.4,i,
NS(=O)(=O)c1cc(C(=O)OCC(=O)Nc2ccc3[nH]c(=O)[nH]c3c2)ccc1Cl,-0.8,1.0,·,·,-0.9,-40.7,-11.7,·,
CCOc1ccccc1C1C(C(=O)Nc2ccccc2OC)=C(C)Nc2nnnn21 (configuration not stated),-0.1,0.2,0.7,-4.2,-5.1,·,-1.2,i,
C=C(C)Cn1c2ccc(NC(=O)CCOCC)cc2c(=O)n1C,-1.7,2.9,·,·,10.1,12.1,·,·,
CC(C)(C)c1ccc(-c2noc(CNC(=O)c3ccco3)n2)cc1,3.4,-6.9,-10.7,-1.4,1.0,19.3,-12.6,·,
C=CCn1c(COc2ccc(Cl)cc2)nnc1SCC(=O)N/N=C/c1cccc(O)c1,1.8,-8.8,5.8,-6.9,-13.9,·,50.6,i,
COC(=O)c1cc(C(=O)Nc2ccc(S(=O)(=O)NC(C)(C)C)cc2)cc([N+](=O)[O-])c1,5.8,2.4,-11.4,-4.1,·,10.8,-9.8,i,
Cn1c(N)c(C(=O)COC(=O)Cc2ccsc2)c(=O)n(C)c1=O,0.0,-2.7,9.7,8.9,-6.8,-3.3,-14.6,i,
CN1C(=O)NC(c2ccccc2)C2=C1CN(c1ccc3ccccc3c1)C2=O (configuration not stated),-1.7,5.0,-8.0,3.9,-14.4,·,-19.3,i,
CCn1cc(C2=NOC(C(=O)Nc3ccc4c(c3)OCO4)C2)c(C)n1 (configuration not stated),1.3,-7.4,48.6,-5.5,-14.6,43.9,5.9,i,
OCCN1CCN(c2ncnc3c2ncn3[C@H]2CN(Cc3cccc(C(F)(F)F)c3)C[C@@H](CO)O2)CC1,2.2,5.9,·,·,-7.3,-3.0,·,·,
CCCCC(=O)NC(c1ccc(N(C)C)cc1)c1ccc2cccnc2c1O (configuration not stated),12.9,-11.3,4.3,-12.3,-18.7,-4.4,108.2*,·,
COc1ccc(-c2nnc(SCC(=O)N3CCc4ccccc4C3)o2)cc1,-1.3,3.5,0.1,-4.2,-5.5,-31.9,-12.4,i,
Cc1ccc(-c2noc(CCC(=O)NC3CCCC3)n2)cc1,1.7,-5.2,-2.8,-11.4,-12.4,-6.3,-0.2,i,
Nc1ncccc1OCc1ccc(Br)cc1,-1.7,-16.9,-1.2,9.3,·,-79.3,20.3,i,
O=C(COc1ccc(S(=O)(=O)NC2CCCCC2)cc1)NCc1ccccn1,4.5,1.5,0.9,8.4,-3.4,·,-3.1,i,
C/C(=N\N=C(/N)c1nonc1N)c1ccc2c(c1)OCO2,-2.6,-9.0,4.7,-2.1,-7.8,39.5,-5.8,i,
COc1ccc(-c2cc(C(=O)N3CCN(c4ccccc4)CC3)no2)cc1,0.0,-1.0,12.5,-0.5,-23.0,-28.2,33.4,i,
CC1CCc2c(sc(NC(=O)CCCn3cnc([N+](=O)[O-])n3)c2C(N)=O)C1 (configuration not stated),4.0,-3.2,6.1,2.6,·,-1.0,-5.6,i,
CC(=O)c1c(C)[nH]c(C(=O)OCC(=O)Nc2cc(Cl)ccc2[N+](=O)[O-])c1C,-14.9,-21.9,-5.8,1.6,·,1.2,3.1,·,
O=C(CC1Sc2ncnn2C1=O)Nc1ccccc1 (configuration not stated),1.5,7.0,3.9,15.4,-9.4,·,-1.3,i,
Cc1c(Cl)cccc1NC(=S)NNc1ncc(C(F)(F)F)cc1Cl,5.2,-22.9,11.8,-0.7,-33.9,67.5*,33.2,i,
O=C(Nc1ccc2ccccc2c1)c1onc2c1CCCC2,-1.9,-5.9,97.0,-0.1,-24.4,·,·,i,eIF4H inh retest=-5.2;PABP FP inh retest=-2.0
Cc1ccc(OCC(=O)Nc2nnc(S(=O)(=O)N3CCC(C)CC3)s2)cc1,-10.2,1.1,62.9*,6.3,-8.0,3.2,17.3,i,eIF4H inh retest=73.8*;PABP FP inh retest=49.7
CCOC(=O)c1c(O)c2ccccc2n(-c2ccccc2)c1=O,1.4,2.1,12.6,11.2,10.1,·,-4.0,i,
COCCN(Cc1ccccc1)C(=O)c1ccc2c(=O)n3c(nc2c1)CCC3,-1.0,3.7,·,·,-19.8,7.7,-11.1,i,
CC1=CC2=NC(=O)/C(=C\c3cccn3CCOc3ccccc3)C(=N)N2O1,-3.8,-2.9,-2.2,-0.2,·,-2.9,2.8,·,
c1ccc2c(c1)CNC1(CCCCC1)C2,-5.8,-1.0,-1.7,8.9,-3.6,·,0.4,i,
C[C@@H]1CN([C@@H](C)CO)C(=O)CCCn2nncc2CO[C@@H]1CN(C)S(=O)(=O)c1ccc(-c2ccccc2)cc1,3.6,1.4,·,·,9.1&-0.3,7.9,·,·,
CCCCCC(=O)Nc1ccc(C(=O)COC(=O)Cn2cnc3c2c(=O)n(C)c(=O)n3C)cc1,0.1,5.6,·,·,-8.5,12.3,-13.4,i,
COC(=O)c1ccccc1NC(=O)C1CCN(S(C)(=O)=O)CC1,·,·,0.8,-2.4,-1.7,·,13.2,i,
CCOc1ccc(C(C)=O)cc1CN1C(=O)NC2(CCCCCCC2)C1=O,1.9,-3.5,0.5,-4.6,·,-3.2,-0.7,i,
CC(=O)NC(=S)Nc1ccc(S(=O)(=O)Nc2ncccn2)cc1,-3.7,-2.1,4.4,6.7,-11.9,-2.5,-27.9,i,
CCOc1ccc(N2CCCn3c2nc2c3c(=O)n(CCc3ccccc3)c(=O)n2C)cc1,·,·,6.0,19.2,·,·,·,i,
CCOC(=O)c1c(C)nn(Cc2ccccc2)c1N,-4.5,-4.7,-4.3,7.0,-20.6,-3.5,·,i,
Cc1cccc(NC(=S)NC2CC3CCCC(C2)N3Cc2cccs2)c1C (configuration not stated),4.1,2.9,-6.1,0.1,-14.0,·,-5.0,i,
O=C(N/N=C\C=C\c1ccc2c(c1)OCO2)C1COc2ccccc2O1 (configuration not stated),-1.4,3.5,-0.3,-0.1,·,-10.3,-4.4,i,
CCC(=O)N1CCc2cc(S(=O)(=O)CCC(=O)Nc3ccc(OC)cc3)ccc21,4.2,2.5,-2.0,-9.4,-2.3,-16.5,-19.0,i,
CC(C)(C)c1ccc(CSc2nnc(-c3ccccc3NC(=O)c3ccccc3)o2)cc1,-5.0,0.3,-0.1,1.5,-0.7,2.9,24.7,i,
O=C(COC(=O)c1ccccc1Br)NCCN1C(=O)CSC1=O,3.7,1.9,8.9,-9.3,·,7.0,8.6,i,
COc1cc(OC)cc(C(=O)Nn2cc(C(=O)Nc3ccc(F)cc3F)c3ccccc3c2=O)c1,2.6,-3.8,-0.8,-6.9,-6.8,-41.2,-9.0,i,
Cc1noc(N)c1C1(O)C(=O)N(C(C)C)c2ccccc21 (configuration not stated),4.4,3.2,1.0,17.3,10.7,5.5,-4.6,i,
CC(C)(C)C(=O)NC(=S)N1CCCC1,-3.1,3.5,7.0,-5.9,-23.4,-17.5,-1.5,i,
CCCCC(c1nc2ccccc2[nH]1)n1c(=O)c(-c2ccccc2)nc2cc(C)c(C)cc21 (configuration not stated),-12.3,-14.4,·,·,-19.9,35.3,·,·,
Cc1ccc2nc(NNC(=O)c3ccc(S(=O)(=O)N4CCc5ccccc5C4)cc3)sc2c1,4.2,-22.4,7.8,12.3,-13.5,-15.8,102.3*,i,
COc1ccc(NC(=O)COc2cccc3c2CCN(Cc2cccnc2)C3=O)cc1,-2.3,-1.2,-12.3,-3.6,3.1,5.1,-8.0,i,
CSc1ccccc1-c1ccc2nccn2c1,-2.5,-5.6,·,·,-17.8,3.2,·,·,
Cn1c(=O)c2[nH]c(CNc3ccc(C(=O)O)cc3)nc2n(C)c1=O,0.8,6.0,1.1,19.8,-27.4,8.7,2.2,i,
O=C(NCc1cccnc1)c1ccccc1NS(=O)(=O)c1ccc(F)cc1,-3.4,1.4,-6.7,-10.0,12.3,-17.1,-6.5,i,
O=C(Oc1cccc(N2C(=O)CCC2=O)c1)c1ccccc1,2.0,1.1,-7.3,-4.9,-11.4,17.7,-15.5,i,

# Sorted by molar mass (falling): some entries from above.
SMILES,MT1-MMP act inh,MT1-MMP act inh RFP,eIF4H inh,PABP FP inh,UUG fidelity,Env fusion inh,CSC inhib,Rce1 inhib,others
O=C(NCc1cccnc1)c1ccccc1NS(=O)(=O)c1ccc(F)cc1,-3.4,1.4,-6.7,-10.0,12.3,-17.1,-6.5,i,
Cn1c(=O)c2[nH]c(CNc3ccc(C(=O)O)cc3)nc2n(C)c1=O,0.8,6.0,1.1,19.8,-27.4,8.7,2.2,i,
CSc1ccccc1-c1ccc2nccn2c1,-2.5,-5.6,·,·,-17.8,3.2,·,·,

# Additional structures follow.
SMILES,MT1-MMP act inh,MT1-MMP act inh RFP,eIF4H inh,PABP FP inh,UUG fidelity,Env fusion inh,CSC inhib,Rce1 inhib,others
COc1cccc(NC(=O)COC(=O)c2ccc3c(c2)OCCO3)c1,-6.0,8.2,·,·,8.1,3.5,·,·,
O=C(c1ccc(S(=O)(=O)N2CCCC2)cc1)N(c1ccc(F)cc1)C1C=CS(=O)(=O)C1 (configuration not stated),-1.8,0.8,-11.9,2.5,-17.2,-2.9,1.6,i,
c1nnn(C23CC4CC(CC(C4)C2)C3)n1,0.9,4.3,-13.1,-11.9,-21.0,-78.4,-8.7,i,
COc1cc(OC)cc(C(=O)NCC(=O)OCC(=O)N2CC(C)CC(C)C2)c1 (configuration not stated),2.1,3.9,6.8,15.2,·,9.9,-6.9,i,
O=C(c1ccco1)N1CCN=C1SCc1cccc(Cl)c1,3.6,6.0,-2.9,4.3,-27.9,-3.7,24.5,i,

# These rows are one share of the data; the hit share may differ from the screen's.
